# MT1-MMP act inh – blocks activation of human MT1-MMP. P50281. HT1080 RFP-PRO-GFP cells, GFP/RFP ratio fluorescence, overnight; percent of plate control window, DMSO zero. GFP/RFP ratio change, % at 20 µM. 360,000 compounds, 0.061% hits. AID 651647;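 active means GFP/RFP ratio change of at least 30% with cell ATP level not reduced by more than half and red fluorescence within 50% of control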; further: strong numbers were not always called active
#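 Assay system: HT1080 RFP-PRO-GFP cells | Dosing: 20 µM single dose, 1% DMSO | Incubation: Cells overnight before dosing, compound overnight, 37 °C, 5% CO2 | Evaluation: GFP/RFP fluorescence ratio | Control set: DMSO-only wells and HT1080 RFP-L50D-GFP cell wells as references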
# CSC inhib – cancer stem cell inhibition | cancer stem cell-like cells viability, luminescence | AID 2717 | 300,000 compounds, 1.1% hits | inhibition, % at 7.5 µM;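 active means mean at 75% or more and at least half the replicates too; inconclusive means mean and replicates disagree; tested in HMLE shEcad cells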;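 further: 0% = median of negative and 100% = median of positive control wells; the first replicate is given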
# Yeast UUG start – yeast start codon fidelity modulation; S. cerevisiae UUG-firefly luciferase reporter, luminescence/redox ratio; activity score, % at 18.7 µM; 350,000 compounds, 0.13% hits; AID 602363;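 active means replicate mean at a twofold rise or more, about +100% in these data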;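 further: firefly luciferase made from a UUG start codon reports start codon fidelity; reporter light over untreated wells divided by growth signal over untreated wells; some hits fall short of that in this replicate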
# eIF4H inh – inhibitors of RNA binding by human eIF4H | inhibition, % at 35 µM | AID 2012 | 290,000 compounds, 0.94% hits | eIF4H fluorescence polarization binding assay | Q15056;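 active means 50% or more with normal probe brightness, or confirmed in later tests; inconclusive means above 50% with abnormal brightness, or retests that disagree; inactive means below 50% or failed in later tests; about a fifth of its hits are not listed in these tables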;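 further: calls also rest on retests at 20 µM and on dose response follow-up; 0% = protein and probe with vehicle and 100% = probe without protein; strong numbers were not always called active; many hits fall short of the cut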
# Rce1 inhib – blocks yeast Ras-converting enzyme; Q03530; yeast membranes, quenched prenylated peptide cleavage fluorescence; calls only; 290,000 compounds, 0.27% hits;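 active means fall in fluorescence gain of 50% or more versus controls, with final raw signal at or below 3038400; inconclusive means same 50% fall but final raw signal above 3038400; inactive means fall in fluorescence gain under 50%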;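 further: plate controls were neutral control wells for no effect and wells lacking membranes for full effect; tested at 10 µM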
# Env fusion inh – inhibitors of HIV Env-mediated cell fusion | HeLa-JRFL Env/CEM21 cell fusion, luciferase | inhibition, % at 12.3 µM | 360,000 compounds, 1.1% hits | AID 651610;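 active means mean replicate inhibition score of at least 50 and every replicate individually at or above 50; inconclusive means only one of the two criteria met; inactive means mean below 50 and not all replicates reaching 50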;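 further: 0% = plate neutral controls and 100% = maraviroc near 300 nM; one replicate is shown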
# PABP FP inh – blocks human PABP binding to poly(A) RNA; fluorescence polarization; inhibition, % at 35 µM; 290,000 compounds, 1% hits;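 active means 50% or more with normal probe brightness, or confirmed in later tests; inconclusive means above 50% with abnormal brightness, or retests that disagree; inactive means below 50% or failed in later tests; about a fifth of its hits are not listed in these tables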;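 further: calls also rest on retests at 20 µM and on dose response follow-up; controls were probe without protein and protein plus probe with vehicle; some compounds called inactive have numbers as strong as hits; many hits fall short of the cut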
# Target sequence (P11940 whole entry, looked up): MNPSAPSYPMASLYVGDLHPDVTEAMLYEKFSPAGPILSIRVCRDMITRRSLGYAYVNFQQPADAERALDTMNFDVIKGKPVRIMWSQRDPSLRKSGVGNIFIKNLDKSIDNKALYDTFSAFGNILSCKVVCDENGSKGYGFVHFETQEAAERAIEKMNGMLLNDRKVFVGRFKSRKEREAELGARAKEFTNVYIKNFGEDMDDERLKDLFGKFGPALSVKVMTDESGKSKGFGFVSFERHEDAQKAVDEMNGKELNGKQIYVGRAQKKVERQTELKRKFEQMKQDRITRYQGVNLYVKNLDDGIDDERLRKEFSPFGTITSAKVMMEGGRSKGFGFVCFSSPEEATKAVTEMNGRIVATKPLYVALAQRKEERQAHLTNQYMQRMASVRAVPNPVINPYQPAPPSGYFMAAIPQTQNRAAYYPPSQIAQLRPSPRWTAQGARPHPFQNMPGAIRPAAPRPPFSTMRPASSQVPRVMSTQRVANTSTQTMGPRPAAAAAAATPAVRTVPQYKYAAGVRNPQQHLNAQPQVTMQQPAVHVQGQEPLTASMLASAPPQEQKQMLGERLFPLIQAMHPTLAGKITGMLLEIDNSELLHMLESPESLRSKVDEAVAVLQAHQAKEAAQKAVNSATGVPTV
# eIF4H inh retest – also measured in eIF4H inh; calls as there; inhibition, %; compound at 20 µM; confirmation average;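 mean of two retest wells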
# PABP FP inh retest – also measured in PABP FP inh; calls as there; inhibition, %; compound at 20 µM; confirmation repeats;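 mean of two retest wells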
# MT1-MMP act inh RFP – further read-out of MT1-MMP act inh, marked with its call; RFP signal change, %; measured here: RFP expression control read;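 0 = vehicle wells; hits needed this value within 50% of zero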
# Numbers without * were called inactive; i = inactive; ? = inconclusive; / = not tested or not shown.
# The first 16 records as a preview:
SMILES,MT1-MMP act inh,MT1-MMP act inh RFP,CSC inhib,Yeast UUG start,eIF4H inh,Rce1 inhib,Env fusion inh,PABP FP inh,others
CCc1ccc(OC(=O)CN2C(=O)c3ccccc3C2=O)cc1,2,2,-14,9,6,i,-7,16,
Cc1ccc2c(CC(=O)NCc3ccco3)coc2c1C,-8,-13,-7,-13,-1,i,/,-4,
Cc1c(Cl)cccc1NC(=O)CNc1ccccc1F,1,1,-8,-2,-10,i,9,-15,
COc1cccc(-c2nn3c(-c4cccc(C)c4)nnc3s2)c1,5,-2,/,-14,4,i,-98,8,
CC(C)=CCN1CCN(Cc2ccc(Oc3ncccn3)cc2)CC1CCO (configuration not stated),1,5,/,-12,4,i,5,-2,
CCOc1ccccc1C(=O)N1c2ccccc2Sc2ccccc21,-15,-21,48,/,3,i,/,-5,
O=C(c1ccco1)N1CCC(c2ccccc2)C1 (configuration not stated),-4,-1,-13,-12,1,i,/,1,
Cc1cccc(C(=O)OCC(=O)N2CCN(C(=O)c3ccco3)CC2)c1O,2,2,-9,-5,/,/,-1,/,
COC(=O)c1ccc(/C=N/n2cnnc2)cc1,4,5,7,-17,-2,i,/,-5,
Cn1c(SCC(=O)NCc2ccco2)nnc1-c1cccs1,-1,6,-9,-20,1,i,-26,-8,
O=C(O)c1cccc([N+](=O)[O-])c1C(=O)Nc1nc2ccccc2s1,-3,3,-2,/,14,i,2,-2,
CCCC(=O)Nc1ccc2oc(-c3cccnc3)nc2c1,4,6,5,0,2,i,-49,-6,
COc1ccc(OC)c(C(c2nnnn2Cc2ccccc2)N2CCN(C)CC2)c1 (configuration not stated),-2,3,/,-3,-7,i,/,10,
CCC1CCCCN1CCCNC(=O)c1ccc2c(c1)c(C)c(C)n2C (configuration not stated),0,0,-7,-1,76,i,-5,-12,eIF4H inh retest=-5;PABP FP inh retest=-3
COc1ccc(OC)c(NC(=O)C2(C)CCN2Cc2ccc(SC)cc2)c1 (configuration not stated),1,-4,/,-15,/,/,6,/,
Cc1ccc(NC(=O)CNC(=O)c2ccc3c(c2)OCO3)nc1,0,2,-8,-17,2,i,0,6,

# Main list, from the first entry:
SMILES,MT1-MMP act inh,MT1-MMP act inh RFP,CSC inhib,Yeast UUG start,eIF4H inh,Rce1 inhib,Env fusion inh,PABP FP inh,others
CCc1ccc(OC(=O)CN2C(=O)c3ccccc3C2=O)cc1,2,2,-14,9,6,i,-7,16,
Cc1ccc2c(CC(=O)NCc3ccco3)coc2c1C,-8,-13,-7,-13,-1,i,/,-4,
Cc1c(Cl)cccc1NC(=O)CNc1ccccc1F,1,1,-8,-2,-10,i,9,-15,
COc1cccc(-c2nn3c(-c4cccc(C)c4)nnc3s2)c1,5,-2,/,-14,4,i,-98,8,
CC(C)=CCN1CCN(Cc2ccc(Oc3ncccn3)cc2)CC1CCO (configuration not stated),1,5,/,-12,4,i,5,-2,
CCOc1ccccc1C(=O)N1c2ccccc2Sc2ccccc21,-15,-21,48,/,3,i,/,-5,
O=C(c1ccco1)N1CCC(c2ccccc2)C1 (configuration not stated),-4,-1,-13,-12,1,i,/,1,
Cc1cccc(C(=O)OCC(=O)N2CCN(C(=O)c3ccco3)CC2)c1O,2,2,-9,-5,/,/,-1,/,
COC(=O)c1ccc(/C=N/n2cnnc2)cc1,4,5,7,-17,-2,i,/,-5,
Cn1c(SCC(=O)NCc2ccco2)nnc1-c1cccs1,-1,6,-9,-20,1,i,-26,-8,
O=C(O)c1cccc([N+](=O)[O-])c1C(=O)Nc1nc2ccccc2s1,-3,3,-2,/,14,i,2,-2,
CCCC(=O)Nc1ccc2oc(-c3cccnc3)nc2c1,4,6,5,0,2,i,-49,-6,
COc1ccc(OC)c(C(c2nnnn2Cc2ccccc2)N2CCN(C)CC2)c1 (configuration not stated),-2,3,/,-3,-7,i,/,10,
CCC1CCCCN1CCCNC(=O)c1ccc2c(c1)c(C)c(C)n2C (configuration not stated),0,0,-7,-1,76,i,-5,-12,eIF4H inh retest=-5;PABP FP inh retest=-3
COc1ccc(OC)c(NC(=O)C2(C)CCN2Cc2ccc(SC)cc2)c1 (configuration not stated),1,-4,/,-15,/,/,6,/,
Cc1ccc(NC(=O)CNC(=O)c2ccc3c(c2)OCO3)nc1,0,2,-8,-17,2,i,0,6,
CCOC(=O)c1c(NC(=O)COC(=O)Cn2cnc3c2c(=O)n(C)c(=O)n3C)sc(C)c1CC,2,5,-2,-2,/,i,3,/,
O=S(=O)(Nc1ccncc1)c1cc(Cl)c(Cl)cc1Cl,-3,2,-10,-24,4,i,0,10,
Cc1cccc(NC(=S)N2CCC(N(C)CC3CCCO3)CC2)c1 (configuration not stated),-3,-4,/,0,-9,i,-1,-6,
COc1ccc(CNC(=O)c2cc(-c3ccc(OC)c(OC)c3)on2)cc1,7,-1,5,-14,-6,i,-24,-6,
O=C(Nc1cc(S(=O)(=O)N2CCOCC2)ccc1N1CCOCC1)c1cnccn1,9,2,/,-14,-9,i,0,6,
COc1ccc(NC(=O)COC(=O)c2c3c(nc4ccccc24)CCCC3)cc1,3,-6,-2,-2,2,i,-22,-5,
Cc1sc(-n2c(C)cc(C=O)c2C)c(C(=O)O)c1C,-2,-4,2,-6,10,i,8,22,
O=S(=O)(c1ccc2nc(Cc3cccc(C(F)(F)F)c3)[nH]c2c1)N1CCOCC1,11,1,10,-18,-5,i,-27,0,
O=C(NC(c1ccc(Cl)cc1)c1ccsc1)C1CCN(Cc2ccc(Oc3ccccc3)cc2)CC1 (configuration not stated),-4,-7,/,-21,/,/,16,/,

# Brought forward from above: two compounds; new compounds follow.
SMILES,MT1-MMP act inh,MT1-MMP act inh RFP,CSC inhib,Yeast UUG start,eIF4H inh,Rce1 inhib,Env fusion inh,PABP FP inh,others
O=S(=O)(c1ccc2nc(Cc3cccc(C(F)(F)F)c3)[nH]c2c1)N1CCOCC1,11,1,10,-18,-5,i,-27,0,
O=C(NC(c1ccc(Cl)cc1)c1ccsc1)C1CCN(Cc2ccc(Oc3ccccc3)cc2)CC1 (configuration not stated),-4,-7,/,-21,/,/,16,/,
CCCCOc1ccc(Br)cc1/C(C)=N/NC1=NCCN1,1,-15,-12,/,-4,i,/,-6,
O=c1n(Cc2ccc(Cl)cc2)c2sc3c(c2c2ncnn12)CCCC3,-12,-19,6,-12,2,i,/,6,
O=C(NCc1ccncc1)c1ccc(Br)cc1,3,2,-16,-34,6,i,-4,9,
CCC(C)(C)NC(=O)C1c2ccccc2Oc2ccccc21,-1,3,-6,/,-5,i,-6,-6,
CN1CCN(c2ccc(NC(=O)N3CCc4ccccc43)cc2)CC1,6,3,2,-74,8,i,19,-2,
O=C(NC(=S)Nc1cccc(C(F)(F)F)c1)c1ccc2nonc2c1,1,-2,11,139*,-4,i,-38,7,
Cc1cc(C)n(-c2ncnc3sc4c(c23)CC(C)CC4)n1 (configuration not stated),-1,1,0,-16,-10,i,/,2,
CN(C)c1ccc(CN(C(=O)c2cccs2)C2CCS(=O)(=O)C2)cc1 (configuration not stated),-9,3,11,-17,7,i,6,-4,
O=C(Nc1cccc(C(F)(F)F)c1)c1ccco1,2,0,4,-16,1,i,-40,7,
Cc1ccc([C@@H]2[C@@H]3C(=O)N(C)C(=O)[C@@H]3[C@]3(C)C(=O)N(Cc4ccccn4)CC(=O)N23)o1,4,0,-20,-17,0,i,-9,-5,
NC(Cc1cccc2nsnc12)C(=O)O (configuration not stated),0,0,2,-16,-9,i,/,26,
CCOc1cc(/C=C2/C(=O)ON=C2C)ccc1O,-2,3,-9,-18,?,i,-11,?,
OC(c1ccc(F)cc1)c1nc(-c2cc3ccccc3o2)cs1 (configuration not stated),-2,-6,/,-11,/,/,-73,/,
CC1(C)COC(c2ccc(F)c([N+](=O)[O-])c2)=N1,6,5,/,/,-2,i,-28,-6,
COCCCNC(=O)CCc1c(C)nc2c(c(C)nn2-c2ccccc2)c1C,5,5,-5,-1,5,i,4,8,
C/C(=C\C(=O)O)C(=O)Nc1nccs1,5,2,11,-14,-5,i,/,4,
O=C(O)c1ccc(N/N=C/c2cn(Cc3ccc(F)cc3)c3ccccc23)cc1,-7,-7,4,-5,42,i,-49,9,
O=C(CSc1ccc2ccccc2c1)N1CCN(c2ccc(O)cc2)CC1,-4,-2,91*,/,-1,i,39,2,
O=C(COC(=O)/C=C/c1ccco1)NCCc1ccccc1,0,5,-9,/,42,i,-6,6,
CC(=O)Nc1ccc(S(=O)(=O)N/N=C/c2ccc(C)s2)cc1,2,4,-8,/,7,i,/,-5,
O=C(NC1CCN(C(=S)Nc2ccc(Cl)cc2)CC1)c1ccco1,-1,-1,-9,-28,4,i,12,1,
Cc1nnc2c3ccccc3c(-c3ccc(O)cc3)nn12,2,8,3,/,-9,i,/,-8,
O=C(C1CCCN(S(=O)(=O)Cc2ccccc2)C1)N1CCCCC1 (configuration not stated),2,1,-16,-19,1,i,/,-4,
CCCn1c(C)cc(C(=O)COc2ccc(-c3nnco3)cc2)c1C,-1,-6,6,/,8,/,9,-3,
CCOc1ccc(NC(=O)C2CCCN(S(=O)(=O)c3ccc4c(c3)C(C)(C)C(=O)N4C)C2)cc1 (configuration not stated),0,-9,/,17,/,/,15,/,

# Next part
SMILES,MT1-MMP act inh,MT1-MMP act inh RFP,CSC inhib,Yeast UUG start,eIF4H inh,Rce1 inhib,Env fusion inh,PABP FP inh,others
CC(=O)Nc1c(O)nc(SCc2ccccc2C#N)[nH]c1=O,4,6,-5,/,1,i,3,5,
CCC(C)NC(=O)C1CCN(S(=O)(=O)c2cccc3nonc23)CC1 (configuration not stated),2,7,-7,-3,1,/,5,15,
Cc1ccc(S(=O)(=O)CCC(=O)Nc2cccc(Cl)c2)cc1,0,5,-8,-5,2,i,1,-11,
CC(=O)N1CCOc2ccc(S(=O)(=O)NCc3ccc(Cl)cc3)cc21,-3,-4,-6,-2,0,i,2,6,
Cc1cc(Cl)ccc1OCCCC(=O)N1CCCc2ccccc21,-9,-11,0,-14,2,i,/,2,
CCC1(c2ccccc2)NC(=O)N(CC(=O)NC2(C#N)CCCCC2)C1=O (configuration not stated),/,/,0,/,/,i,-2,/,
Cc1cc2cc(CNC(=O)c3ccc(S(=O)(=O)N(C)C)cc3)ccc2n1C,32,55,-12,-15,?,i,-13,5,
Cc1ccsc1/C=N/NC(=O)C(=O)NCC(C)C,-4,-1,1,-10,-2,i,-20,7,
Cc1cc(C(=O)N2CCN(C/C=C/c3ccccc3)CC2)no1,0,1,/,15,-6,i,2,5,
COC(=O)c1cnn(-c2ccccc2)c1/C=N/NC(=S)Nc1ccccc1,4,-12,1,-23,11,/,11,7,
COC(=O)c1cccc(NC(=O)Cc2nc(-c3ccccc3)sc2-c2ccc(C)cc2)c1,0,-3,10,/,2,i,19,5,
Cn1c2ccccc2c2ncn(CCN3CCOCC3)c(=O)c21,-1,0,-13,-12,-7,i,-18,5,
COc1cc(OC)cc(C(=O)N[C@H](C(=O)OCC(=O)Nc2ccc(C(C)C)cc2)C(C)C)c1,0,1,14,/,-2,i,18,5,

# Bioassay records deposited in PubChem BioAssay by several laboratories.

# This is a subset; rates above refer to the full screens.
